Screens as filed in PubChem BioAssay.
NPYLR7 ag: agonists of mosquito NPYLR7 receptor, primary screen, cell-based, Aedes aegypti, calcium fluorescence, mosquito biting behavior | HEK293T NPYLR7/Galpha15, GCaMP6s calcium fluorescence | activation, % at 10 µM | actives 0.15% (n = 270,000) | AID 1259423, 2018; in the data active = activation above about 40%;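 also: 0% = vehicle and 100% = reference agonist at the receptor; some compounds past the cut are filed as inactive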
NPYLR7 ag max-min: further read-out of NPYLR7 ag, marked with its call; activation, %; measured here: Max-Min RFU normalised activation; some inactives read as strong as hits;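 span of the calcium signal over five minutes; 0% = vehicle and 100% = native peptide agonist; compound fluorescence can raise it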
An asterisk follows results filed as active; & = joins results of further samples. Not all compounds are listed. The share of hits here may be higher or lower than overall.

SMILES	NPYLR7 ag	NPYLR7 ag max-min
O=C(NC(c1ccccc1)C1CC1)c1ncc(Cl)c(Cl)c1Cl (stereo not given)	-6	-5
CCn1c(C)cc(C(=O)CSc2nnc(N3CCCC3)n2C2CC2)c1C	4	0
CCN(CC)C(=O)Oc1ccc2c(ccn2Cc2cc(C(F)(F)F)ccc2Cl)c1-c1cc(C)cc(C)c1	9	-1
O=C1Nc2ccc(-c3ccco3)cc2C(=O)N2CCN(C(=O)[C@H]3CCCN3)C[C@@H]12	-8	-14
CC(Sc1nnc(NCc2ccco2)s1)C(=O)Nc1ccccc1 (stereo not given)	5	-2
Cc1c(Cl)cccc1NC(=O)NCCCn1ncccc1=O	-9	-16
COc1ccc2c(c1)c(CCN(C)C)cn2Cc1ccc(OC(F)(F)F)cc1	-7	-11
CCCOc1nn(CCC)cc1C(=O)NC1CCCCC1	1	-8
CC(C)(C)c1cc(NC(=O)CN(Cc2ccccc2)C(=O)Nc2ccccc2C(F)(F)F)n(-c2ccc(Cl)c(Cl)c2)n1	1	7
O=C(NC1CCN(C(=O)CCCn2c(=O)oc3ccccc32)CC1)c1ccccc1	5	5
O/N=C1\CCCCCC1NO (stereo not given)	-13	-18
CCOC(=O)CCC(=O)N1CCC(c2nc(-c3cccnc3)no2)CC1	18	10
CC(CNC(=O)Cn1cnnn1)c1c(Cl)cccc1Cl (stereo not given)	-3	-4
O=C(CCCn1nc(-c2ccco2)ccc1=O)Nc1nc2ccccc2s1	1	2
CC1CCN(c2ccc(NC(=O)Nc3cccc4ccccc34)cc2C(=O)NC(C)c2ccccc2)CC1 (stereo not given)	-4	-4
CCc1ccc(NC(=O)Cn2nnc(-c3c(F)cccc3Cl)n2)cc1	5	4
Cc1ccc(-n2c(-c3ccc(F)cc3)cc(C(=O)N3CCN(C(=O)Nc4ccc(C(C)C)cc4)CC3)c2C)cc1	0	2
CC(NC(=O)N(C)Cc1csc2ccccc12)C1CCCO1 (stereo not given)	3	1
O=C(Nc1nccs1)c1cn(Cc2ccc(F)cc2)nc1OCc1ccc(F)cc1	9	2
Cc1ccccc1NC(=O)C1C(=O)N(CCO)C2(C)CC1c1ccccc1O2 (stereo not given)	2	-1
Cc1ccc2nc(CSc3[nH]c(=O)cc(C(F)(F)F)c3C#N)cc(=O)n2c1	3	2
O=C(NNC(=O)c1cc(Br)c[nH]1)c1ccsc1	15	8
CC(=O)OCC(=O)NCC1Cc2cc(Oc3ccccc3)ccc2O1 (stereo not given)	9	8
COc1ccccc1N1CCN(C2CCCN(C(=O)CC(C)(C)C)C2)CC1 (stereo not given)	23	26
COc1ccccc1N1CCN(c2nnnn2-c2ccccc2)CC1	8	7

Going on with the list:
SMILES	NPYLR7 ag	NPYLR7 ag max-min
O=C1NC2(CCN(C(=O)Nc3ccccc3F)CC2)Nc2cccc(Cl)c21	0	1
c1ccc(C2NCCc3[nH]cnc32)c(Cn2cccn2)c1 (stereo not given)	14	11
Cc1nc2c(C)cccc2cc1C(=O)N1CC(c2ccncc2)C1	0	-3
C#CCOCC(O)CN(Cc1ccccc1C)C1CC1 (stereo not given)	16	27
CN(C)c1ccc(NC=CC(=O)C(F)(F)F)cc1	1	1
CCOC(=O)N1CCC(N2CCCC(CNC(=O)c3ccc(-c4ccccc4)cc3)C2)CC1 (stereo not given)	1	1
CN(CC1CCCN(CCc2ccccc2F)C1)C(=O)c1cccc(F)c1 (stereo not given)	3	2
Cc1nc(C2CCNCC2)cc(N(C)Cc2sccc2C)n1	-3	-7
Cc1cc2c(cc1O)NC(=O)CC2c1ccccc1Cn1cccn1 (stereo not given)	-2	-6
C(#Cc1cncnc1)c1ccc(CN2CCCC(Nc3ccccc3)C2)cc1 (stereo not given)	0	-2
Cc1ncc(CC(=O)NCc2cccnc2Oc2ccccc2F)c(=O)[nH]1	4	21
Cc1nc(CNc2ccccc2C(C)(C)C)cs1	-5	-5
O=[N+]([O-])c1ccc(/C=C(Cl)/C=N/n2cnnc2)cc1	4	2
CCc1noc(C(C)N2CCOC(Cn3cncn3)C2)n1 (stereo not given)	3	0
CCc1ccc(C(=O)Nc2ccc(Br)cc2)s1	4	2
Cc1ccc(-c2cn3c(=S)[nH]nc3s2)cc1	-8	-9
CC(NC(=O)c1ccc2ccccc2n1)c1ccc(Cl)c(Cl)c1 (stereo not given)	-6	-4
C=CCOCC(O)CN(CCC(C)C)Cc1cccc(C)c1 (stereo not given)	-1	9
CC(CNC(=O)CCc1ccc(Cl)s1)CN1CCCCC1 (stereo not given)	2	1
O=C(NC1CC1)c1cn(C2CCN(C(=O)Cn3cccn3)CC2)nn1	-1	-5
Cc1cccc(C)c1OCC(O)Cn1cnc2cc(F)ccc2c1=O (stereo not given)	5	3
O=C(Cn1nc(-c2ccco2)oc1=O)Nc1ccc(C(F)(F)F)cc1	1	-5
O=C(CCN1C(=O)NC2(CCCC2)C1=O)N1CCN(S(=O)(=O)c2cccs2)CC1	15	9
Cc1nn(C2CCS(=O)(=O)C2)c(C)c1C=Cc1nc2ccccc2o1 (stereo not given)	9	6
O=C(c1cc2n(n1)CCN(Cc1c(F)cccc1Cl)C2=O)N1CCC(n2c(=O)[nH]c3ccccc32)CC1	12	4

No new results follow: an excerpt of the list.
SMILES	NPYLR7 ag	NPYLR7 ag max-min
Cc1cc2c(cc1O)NC(=O)CC2c1ccccc1Cn1cccn1 (stereo not given)	-2	-6
C(#Cc1cncnc1)c1ccc(CN2CCCC(Nc3ccccc3)C2)cc1 (stereo not given)	0	-2
Cc1ncc(CC(=O)NCc2cccnc2Oc2ccccc2F)c(=O)[nH]1	4	21
Cc1nc(CNc2ccccc2C(C)(C)C)cs1	-5	-5
O=[N+]([O-])c1ccc(/C=C(Cl)/C=N/n2cnnc2)cc1	4	2
CCc1noc(C(C)N2CCOC(Cn3cncn3)C2)n1 (stereo not given)	3	0
CCc1ccc(C(=O)Nc2ccc(Br)cc2)s1	4	2
Cc1ccc(-c2cn3c(=S)[nH]nc3s2)cc1	-8	-9
CC(NC(=O)c1ccc2ccccc2n1)c1ccc(Cl)c(Cl)c1 (stereo not given)	-6	-4
C=CCOCC(O)CN(CCC(C)C)Cc1cccc(C)c1 (stereo not given)	-1	9
CC(CNC(=O)CCc1ccc(Cl)s1)CN1CCCCC1 (stereo not given)	2	1
O=C(NC1CC1)c1cn(C2CCN(C(=O)Cn3cccn3)CC2)nn1	-1	-5
Cc1cccc(C)c1OCC(O)Cn1cnc2cc(F)ccc2c1=O (stereo not given)	5	3
O=C(Cn1nc(-c2ccco2)oc1=O)Nc1ccc(C(F)(F)F)cc1	1	-5
O=C(CCN1C(=O)NC2(CCCC2)C1=O)N1CCN(S(=O)(=O)c2cccs2)CC1	15	9
Cc1nn(C2CCS(=O)(=O)C2)c(C)c1C=Cc1nc2ccccc2o1 (stereo not given)	9	6
O=C(c1cc2n(n1)CCN(Cc1c(F)cccc1Cl)C2=O)N1CCC(n2c(=O)[nH]c3ccccc32)CC1	12	4

Continued.
SMILES	NPYLR7 ag	NPYLR7 ag max-min
CCCCC(CC)C(=O)N1CCc2ccccc2C1c1ccccc1F (stereo not given)	15	7
FC(F)(F)CCc1ccnc(NC2CCOC2)n1 (stereo not given)	17	7
Cc1noc(C)c1S(=O)(=O)N1CCCN(C(=O)C2=Cc3cc(Cl)ccc3OC2)CC1	-4	-1
CN(C)c1ncccc1CNC(=O)Cc1ccc(O)c(F)c1	0	37
Cc1cc([N+](=O)[O-])nn1CC(=O)Nc1cc(Oc2cccnc2)cc([N+](=O)[O-])c1	4	-3
Cc1ccc2cccc(OC(=O)c3ccco3)c2n1	1	9
CC(C)N1CCNC(=O)C1CC(=O)NC1CCN(Cc2ccccn2)CC1 (stereo not given)	27	9
Cc1cc(NC(=O)C(=O)N2CCN(C3Cc4ccccc4C3)CC2)no1	7	7
CC(=O)NCCc1cc2c(cc1CC#N)OCO2	-1	-5
O=S(CCN1CCCN(c2nccs2)CC1)c1ccccc1 (stereo not given)	2	1
Cc1[nH][nH]c(=O)c1C(c1cc2c(cc1Br)OCO2)c1c(C)[nH][nH]c1=O	1	0
O=C(Cc1ccccc1Br)N(CC1CCOC1)C1CC1 (stereo not given)	0	-2
Cc1noc(C)c1C(=O)N1CCN(Cc2cc(=O)c(OCc3ccc(F)cc3)co2)CC1	2	-1
COc1ccc(S(=O)(=O)NCC2CCCO2)cc1N1CCN(C(=O)c2cc3ccccc3s2)CC1 (stereo not given)	6	3
COc1cccc(C(=O)N2CCC2(C)C(=O)O)c1 (stereo not given)	0	-3
Cc1ccc(C(CN2CCOCC2)NS(=O)(=O)c2cc(Cl)ccc2Cl)cc1 (stereo not given)	7	1
O=S(=O)(c1cccc2cccnc12)N1CCC(c2nc(-c3ccc(Cl)cc3F)no2)CC1	-2	7
CCCCN(CC(=O)N(CCc1c[nH]c2ccccc12)Cc1ccc(F)cc1)C(=O)Nc1cccc(C)c1	19	25
O=C(C1CCC1)N1CCC(Cc2ccc(C(F)(F)F)cc2)CC1	0	12
CN1C(=O)C(=Cc2ccccc2OCc2ccc(F)cc2)C(=O)N(C)C1=O	6	7
CN1CCC2(CC1)CN(C(=O)c1ccc(Oc3ccccc3)o1)CCN2C	16	8
CCN(C)C(=O)C1CN(C(=O)c2ccccc2C)CC1c1cccc(C(F)(F)F)c1 (stereo not given)	12	3
Cc1nc(C(C)C)ncc1C(=O)N(C)Cc1snnc1C	1	-1
CCCOc1ccccc1NC(=O)c1ccc(NS(=O)(=O)c2ccc3[nH]cc(C(=O)O)c(=O)c3c2)cc1	-7	-16
Cc1ncc(CSSCc2cnc(C)c(O)c2CO)c(CO)c1O	-2	-7

Remaining list, next part
SMILES	NPYLR7 ag	NPYLR7 ag max-min
O=C(CCl)N1CCN(c2nc(Cc3ccccc3)nc3c2cnn3-c2cccc(Cl)c2)CC1	40	44
C=CCN(Cc1nc2scc(-c3ccc(Cl)cc3)c2c(=O)[nH]1)CC(C)O (stereo not given)	-2	9
Cc1cc(Nc2ccc3c(n2)C(=O)N([C@H](C)C(=O)NC2CC2)C3)n(C)n1	3	-2
CCC(C)NC(=O)CN1C(=O)NC(CC)(c2ccccc2)C1=O (stereo not given)	2	-3
CCOC(=O)c1c(C)[nH]c(C(=O)OCC(=O)N(C)C)c1C	0	0
CC(=O)Nc1ccc(CNc2nc(NCCN(C)C)nc3cc(-c4ccccc4)sc23)cc1	6	2
CCOC(=O)c1c(NC(=O)c2cc(OC)c(OC)c(OC)c2)sc2c1CCC2	13	3
CCS(=O)(=O)CCn1ccc(NC(=O)C2=C(Cl)CCCC2)n1	-1	-12
O=C(c1cccc(F)c1)N1CCC(Cc2ccc(-c3ccccc3)cc2)CC1	2	-3
CCN(CC)C(=O)[C@@H]1C[C@@H](N)CN1C1CCN(c2ccc3c(c2)CCC3)CC1	8&11	3&5
O=C(O)CN1C(=O)CNC1=O	4	6
COCC1(C(=O)NCc2nc(-c3ccccc3)n[nH]2)CCC1	21	13
O=C(c1ccccc1)c1ccc2c(c1)N=C1CCCC(=O)C1C(c1ccc3c(c1)OCO3)N2 (stereo not given)	13	13
CC(C)(C)CCNC(=O)c1cncn1-c1ccc(-c2ccc(F)c(F)c2)cc1	4	3
COc1ccc([C@@H](C)NC(=O)[C@@H]2C[C@H](NC(=O)c3cccc(C)c3)CN2C)cc1	1	-2
O=C(CCS(=O)(=O)Cc1csc(C2CCCCC2)n1)Nc1ccccc1	8	4
Cc1ccccc1C(N)C(C)(C)C (stereo not given)	9	3
COCc1c(C(=O)N=Nc2c(O)[nH]c3ccccc23)nnn1-c1nonc1N	-3	-1
CCOC(=O)c1c(C)c(C(=O)CN(C(=O)c2cccc(C(F)(F)F)c2)C2CC2)c(C)n1C	-5	-4
O=C(Nc1ccc(-c2cccc(F)c2)cc1)C1CCCN(C(=O)C2CCOCC2)C1 (stereo not given)	2&13	3&6
COc1cc(-c2nnc(CSc3nnc(-c4ccco4)o3)o2)cc(OC)c1OC	5	8
CN(C)c1cccc(C(=O)N2CCN(C3c4ccccc4CCc4ccccc43)CC2)c1	41	18
Cc1cc(CS(=O)(=O)C(C)C(=O)N(C)c2ccccc2)on1 (stereo not given)	11	4
c1cc2c(cc1C1=NNC(=NCC3CCCO3)SC1)OCO2 (stereo not given)	7	1
C/C=C/c1cc(CN2CCN(S(=O)(=O)c3ccc(C)cc3)CC2)c(O)c(OC)c1	5	5

Following part.
SMILES	NPYLR7 ag	NPYLR7 ag max-min
CN(C)c1oc(COc2ccc(F)cc2)nc1C#N	-2	-3
CCCc1nc(C(=O)N2CCn3c(C(N)=O)cnc3C2)cs1	18	13
COCCCN1COc2ccc3c(=O)c(Oc4ccccc4OC)coc3c2C1	-7	-12
COCC(=O)NCc1cccnc1N1CCN(c2ccccc2C)CC1	-1	-1
COCCCN(CC(=O)N(Cc1ccco1)Cc1cccn1C)C(=O)Nc1ccc(F)cc1F	17	17
Cc1cc(C(=O)NCCc2ccc(Cl)cc2Cl)n2nc(C(C)(C)C)cc2n1	-16	-15
COCCNC(=O)c1ccccc1N1CCC(NC(=O)OCc2ccccc2)CC1	-3	3
CCOC(=O)CSc1nc(C)c(Oc2ccccc2)c(=O)[nH]1	6	4
Nc1cc(-c2ccc(CN3CCCC3)cc2)c2cc[nH]c2n1	2	-1
Cc1nn(-c2cc(Nc3c(F)cccc3F)ncn2)c(N)c1C#N	1	6
CCCc1nc(N2CCCN(Cc3ccccn3)CC2)c2cnn(-c3ccccc3)c2n1	1	2
O=C(NCc1ccc(F)cc1)c1csc(CSc2nnc(-c3ccco3)n2-c2ccccc2Cl)n1	0	9
Cc1cc(NC(=O)C(C)Oc2ccc(Cl)cc2)ccc1N1CCCC1=O (stereo not given)	10	5
COc1ccccc1N1CCN(Cc2ccccc2C)C(C)C1=O (stereo not given)	13	17
Cc1c(=O)n(OCc2cccc(F)c2)c2ccccc2[n+]1[O-]	-2	-4
COc1ccccc1-c1cc(-c2ccccc2)nc(SCC(=O)OCc2ccccc2)c1C#N	0	-5
CCCNC(=O)CSc1nnc(Nc2ccc(C(C)C)cc2)s1	2	7
O=C(CCCS(=O)c1ccc(Br)cc1)N1CCCC1 (stereo not given)	-3	7
CCOCCCN1COc2ccc3cc(-c4ccccc4)c(=O)oc3c2C1	0	-6
